Screening data from PubChem BioAssay.
Vif TR-FRET: inhibitors of Vif binding to APOBEC3G peptide, primary screen, biochemical, TR-FRET, GST-Vif 1-94, biotin-A3G peptide, dose response retest (AID 1117319); TR-FRET GST-Vif / biotin-A3G peptide binding; higher % means a stronger effect; test concentration not given here; strong numbers were not always called active; inhibition, %; hits with a dose series show IC50 in µM; 0.57% of 260,000 active;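 active means above the screen mean plus three standard deviations and confirmed in dose response; inconclusive means results disagree or hit not tested in dose response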;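 further: Vif residues 1-94 fused to GST binding biotinylated APOBEC3G peptide 110-148; 0% = full assay without inhibitor and 100% = GST in place of GST-Vif; retest series ran down from 100 µM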
Bfl-1 A1 inh: inhibitors of the anti-apoptotic protein A1, read as caspase activation | MEF A1-2A-BIM cells, Caspase-Glo 3/7 luminescence, 3 h; percent of clofoctol response, vehicle zero | caspase activation, % (no concentration beside the values) | 0.066% of 330,000 active;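 active means over half of replicate activation scores above 10%, or exactly half above 10 with the replicate mean above 10; inconclusive means replicate mean below 10 yet half the replicates above 10; inactive means over half of replicates below 10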;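 further: wells of about 30 µL received 50 nL stock; many hits fall short of the cut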
T cruzi repl: blocks replication of Trypanosoma cruzi. inhibition, % (no concentration beside the values). 1.4% of 300,000 active. T. cruzi beta-gal in NIH3T3, luminescence, 90 h;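 active means mean inhibition across valid replicates above about 55%, limit read from the data; inconclusive means mean below that limit but half or more replicates reach it; inactive means mean below it, under half of replicates reach it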;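 further: signal also drops with host cell toxicity which is not excluded here; 0% = plate median of DMSO wells and 100% = zero luminescence signal; higher percent means less beta-gal luminescence so fewer parasites; stock transfer was 50 nL into about 50 µL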
MLL AF4-AF9 inh: MLL-AF4/AF9 protein interaction inhibition; AlphaScreen, biotin-AF4 peptide binding to FLAG-AF9; 0.47% of 350,000 active; P42568; inhibition, % at 10 µM;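 active means every replicate reaching a set inhibition limit, whatever the replicate mean, cut at about 25% in these data; inconclusive means mean inhibition reaches that limit but some replicates miss it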;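 further: 0% = plate neutral control median and 100% = total signal loss; the record names both 10 and 1 µM as test concentration; the first replicate is given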
Target sequence (P42568 whole entry, looked up): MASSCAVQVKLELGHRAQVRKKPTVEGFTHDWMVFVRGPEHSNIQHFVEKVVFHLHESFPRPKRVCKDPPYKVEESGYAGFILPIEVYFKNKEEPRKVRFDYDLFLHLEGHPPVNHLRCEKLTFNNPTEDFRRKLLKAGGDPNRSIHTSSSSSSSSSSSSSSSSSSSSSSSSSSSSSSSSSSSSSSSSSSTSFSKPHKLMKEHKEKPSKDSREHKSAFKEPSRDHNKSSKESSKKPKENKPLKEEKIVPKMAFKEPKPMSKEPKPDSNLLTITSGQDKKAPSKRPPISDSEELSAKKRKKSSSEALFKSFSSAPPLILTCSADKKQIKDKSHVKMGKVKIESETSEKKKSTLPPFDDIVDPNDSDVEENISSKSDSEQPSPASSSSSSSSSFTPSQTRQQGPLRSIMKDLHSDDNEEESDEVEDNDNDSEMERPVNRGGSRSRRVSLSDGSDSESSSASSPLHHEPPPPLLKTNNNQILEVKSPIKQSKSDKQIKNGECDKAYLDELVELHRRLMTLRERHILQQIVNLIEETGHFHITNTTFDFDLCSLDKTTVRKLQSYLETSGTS
Beta cell apopt: blocks beta cell apoptosis; INS-1E cytokine-induced death, ATP luminescence, 48 h; percent of positive-control rescue, neutral wells zero; protection from apoptosis, % (test concentration not listed); 0.8% of 300,000 active;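 active means all replicates at 75% or more, or half of them and the mean; inconclusive means half reach 75% but not the mean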;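 further: 0% = cytokine-treated negative control wells and 100% = positive control rescue; higher means more ATP so stronger rescue from cytokine killing; wells of about 40 µL received 100 nL stock; the first replicate is given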
Calb FLC: C. albicans growth modulation with fluconazole; C. albicans CaCi-2 (fluconazole-resistant clinical isolate) + fluconazole, Alamar Blue growth, 48 h; growth inhibition, % (no concentration beside the values); 0.57% of 300,000 active; AID 1979;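 active means most replicates above 75%; inconclusive means exactly half above 75%; inactive means most below 75%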;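 further: all wells also contain fluconazole at 8 µg/ml as a sub-toxic cotreatment; 0% = median of DMSO wells and 100% = median of geldanamycin control wells; wells of about 8 µL received 7.5 nL stock; the first replicate is given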
Ecoli rRNA inh: selective bacterial rRNA inhibition in E. coli; GFP signal change (wild-type ribosome), % (concentration not given with the values); AID 720706; 1.6% of 350,000 active; E. coli WT GFP vs humanized-ribosome RFP mutants, fluorescence, 24 h; hits give low values; DMSO median 0, no signal -100;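 active means significant combined selectivity score with lowered wild-type GFP, culture density cut under 30%, mutant RFP and density less affected; inactive means any of these conditions unmet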; further: one replicate is shown; some compounds called inactive have numbers as strong as hits
RanGTP-Imp inh: disruptors of Ran-importin-beta complex formation – biochemical, FRET, CFP-Ran, YFP-importin-beta, homogeneous, primary screen; cell-free CFP-Ran/YFP-importin-beta FRET ratio; inhibition, % (concentration not given with the values); 1.1% of 300,000 active;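 active means most replicates above 15%; inconclusive means exactly half above 15%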;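 further: 0% = DMSO wells and 100% = Ran loaded with GDP instead of GTP; wells of about 40 µL received 100 nL stock; the first replicate is given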
Ecoli rRNA inh OD600: second read-out of Ecoli rRNA inh, no call of its own (marks repeat the call); OD600 change, %; measured here: OD600 growth;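 optical density of the mix in the first replicate; 0 = DMSO median and -100 = no signal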
Ecoli rRNA inh RFP: also measured in Ecoli rRNA inh; calls as there; RFP signal change, %; measured here: RFP humanized mutant strains;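 first replicate; 0 = DMSO median and -100 = no signal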
Numbers without * were called inactive; ? = inconclusive; nt = no result given; & = joins results of further samples. An excerpt; rates above refer to the full screens.

SMILES	Vif TR-FRET	Bfl-1 A1 inh	T cruzi repl	MLL AF4-AF9 inh	Beta cell apopt	Calb FLC	Ecoli rRNA inh	Ecoli rRNA inh OD600	Ecoli rRNA inh RFP	RanGTP-Imp inh
CCOC(=O)c1c(NC(=O)CSc2nnc(CNC(=O)c3ccco3)n2C)sc2c1CCC2	4%&5%	0.3	5	-0.2	-7	-10	-46	-67	2.1	3.6
Cc1ccc(-c2csc(N3CCC(C(N)=O)(N4CCCCC4)CC3)n2)cc1	1%	0.7	18	-5.9	0	-2	4	-4	-0.5	?
O=C(NCc1ccccc1)c1ccccc1C(=O)c1ncc[nH]1	12%	-0.3	-2	-1.0	-3	1	15	6	-2.5	2.1
Cc1nnc(SCc2nc3sc(C(=O)O)c(C)c3c(=O)[nH]2)s1	20%	-0.3	0	7.6	0	3	4	-3	1.6	-5.8
COc1ccccc1CNC(=O)c1ccc(-c2ccccc2)cc1	nt	-1.3	20	-2.3	2	-14	8	0	-1.2	0.1
O=C(O)c1ccccc1Nc1ccc([N+](=O)[O-])c2nonc12	5%	-1.9	-5	nt	9	-10	nt	nt	nt	0.7
COc1ccc(CCn2nnnc2C(CC(C)C)N2CCC(C(N)=O)CC2)cc1OC (stereo not given)	10%	1.8	5	nt	-7	-2	nt	nt	nt	-1.3
COc1ccccc1N1CCN(C(=O)Cn2nc3n(C)c4ccccc4n3c(=O)c2=O)CC1	?	-0.3	-9	nt	-3	1	nt	nt	nt	-0.5
CNCC(=O)Nc1c(C)n[nH]c1C	24%	-0.2	2	-11	-3	5	3	9	-6.6	2.8
CC(=O)O[C@H]1C(=O)[C@@]2(C)[C@H]([C@H](OC(=O)c3ccccc3)[C@]3(O)C[C@H](OC(=O)[C@H](O)[C@@H](NC(=O)c4ccccc4)c4ccccc4)C(C)=C1C3(C)C)[C@]1(OC(C)=O)CO[C@@H]1C[C@@H]2O	nt	-0.6	nt	-2.6	-15	nt	-1	3	-2.3	nt
COc1ccc(CNc2nc(=S)[nH]c3cc(OC)c(OC)cc23)cc1	-6%	-0.2	3	-4.4	4	-8	6	12	1.0	-0.6
CCCN1C(=O)CC(Sc2ncccc2C(=O)O)C1=O (stereo not given)	4%	-0.5	0	-1.9	-2	7	10	10	-0.7	5.3
CCOc1ccc(-c2nnc3ccc(SC(C)C)nn23)cc1	-53%	0.1	20	-10	9	-8	6	1	3.1	1.0
Cc1nnc(NC(=O)CSc2nnc(C)n2-c2ccc(F)cc2)s1	-6%	0.7	1	0.7	-2	-22	16	15	1.0	0.7
O=C(O)c1ccc(C(=O)c2ccc3c(c2)C(=O)N(CCO)C3=O)cc1	1%	0.4	1	3.0	6	0	7	2	1.7	-0.9
CN(CCCNC(=O)c1cccn2c(=O)c3ccccc3nc12)Cc1ccccc1	1%	0.2	48	nt	8	-4	nt	nt	nt	3.3
CCc1ccccc1NC(=O)CN1C(=O)c2ccccc2S1(=O)=O	0%	0.5	-17	0.1	nt	6	-1	5	0.3	12
CCCn1c(N)c(C(=O)COC(=O)CCS(=O)(=O)c2ccc(C)cc2)c(=O)[nH]c1=O	3%	0.0	-18	-2.5	-4	-9	2	10	2.1	?
CC(=O)OCC1=C(C(=O)O)N2C(=O)C(NC(=O)c3ccc(F)cc3)C2SC1 (stereo not given)	-2%	-0.4	-11	-7.1	-4	4	13	9	0.8	-0.3
CN1CCN(CC(=O)Nc2ccc(Oc3ccccc3)cc2)CC1	5%	0.4	?	nt	-3	0	nt	nt	nt	-0.3

Single entries from the list.
Entry for `CCCN1C(=O)CC(Sc2ncccc2C(=O)O)C1=O` (stereo not given) under Beta cell apopt: -2
Entry for `O=C(O)c1ccc(C(=O)c2ccc3c(c2)C(=O)N(CCO)C3=O)cc1` under Vif TR-FRET: 1%

Following part:
SMILES	Vif TR-FRET	Bfl-1 A1 inh	T cruzi repl	MLL AF4-AF9 inh	Beta cell apopt	Calb FLC	Ecoli rRNA inh	Ecoli rRNA inh OD600	Ecoli rRNA inh RFP	RanGTP-Imp inh
COC(=O)Cc1c(C)nc2nc(NCc3ccc(Cl)cc3)[nH]n2c1=O	?	1.1	-5	nt	-6	-3	nt	nt	nt	-0.7
COc1ccc(S(=O)(=O)NN(C)c2nc(C(F)(F)F)nc3ccccc23)cc1	-2%	0.2	1	-0.6	3	20	-14	-8	-2.8	-1.5
O=C1N[C@@H](Cc2cnc[nH]2)C(=O)N2CCC[C@@H]12	-3%	-0.4	-16	-0.2	1	-3	2	12	-1.2	-1.8
O=C(NCc1ccco1)c1ccc2c(=O)n(-c3ccccc3)c(=O)n(Cc3cccc(F)c3)c2c1	-9%	0.4	-48	1.5	2	4	9	13	8.0	-0.4
O=C(CN1CCN(Cc2ccccc2Cl)C1=O)NCCCN1CCOCC1	?	0.0	3	-23	-5	-7	2	1	-0.8	-0.6
O=C(COC(=O)c1ccccc1)Nc1ncc([N+](=O)[O-])s1	6.6µM*	-2.5	nt	-3.7	9	nt	-45	-46	-2.5	nt
CN(Cc1cccs1)C(=O)COc1ccc(-c2nnco2)cc1	4%	1.4	-11	nt	-2	-2	nt	nt	nt	-3.7
O=C(CNS(=O)(=O)c1ccc2ccccc2c1)NCCc1ccccn1	-8%	0.2	-2	-3.2	nt	-11	2	3	3.5	-5.0
c1ccc(CNc2ncnc3nc[nH]c23)cc1	-2%	nt	-6	0.4	nt	nt	nt	nt	nt	-5.3
O=C(Cc1cc(=O)[nH][nH]1)N/N=C/c1ccccc1Cl	?	-0.3	-11	0.6	-5	-1	10	13	-1.2	2.5
O=C(O)CCc1ccc(-c2cccs2)n1NC(=O)c1ccc(O)cc1	20%	-1.4	-8	-10	-3	13	8	-2	-1.2	-2.1
CCOc1ccc(N2CC(C(=O)NC3CCSC3=O)CC2=O)cc1 (stereo not given)	4%	0.7	-8	-1.5	-2	11	14	15	-0.8	0.1
N#CC(c1cccc(Cl)c1)c1ncc(C(F)(F)F)cc1Cl (stereo not given)	8%	0.5	29	nt	6	-12	nt	nt	nt	1.6
CC(C)CNC(=O)C(=O)Nc1ccc(N(C)C)cc1	-5%	-0.9	-13	-3.4	0	-38	4	4	-0.3	nt
CCOC(=O)[C@H]1[C@H]2COc3ccccc3[C@@H]2N2C(=O)c3ccccc3NC(=O)[C@@]12C	nt	0.1	nt	0.1	-7	nt	-18	-22	-3.2	nt
O=C(N/N=C(\c1ccccc1)c1cccnc1)c1ccc(O)cc1	nt	0.9	-6	-11	-1	-1	-1	9	0.2	4.1
CCOc1ccc(S(=O)(=O)N2CCCCC2)cc1NC(=O)Cc1cccc(C(F)(F)F)c1	?	1.2	nt	1.1	11	nt	-5	4	-2.1	nt
Cn1cnnc1SCC(=O)c1ccc2c(c1)CCCC2	6%	-0.9	7	nt	2	3	nt	nt	nt	0.2
CC1(C(=O)CSc2nc3ccccc3[nH]2)CCC(=O)O1 (stereo not given)	5%	1.6	-4	nt	nt	39	nt	nt	nt	-0.5
O=c1cc(-c2ccccc2)[nH]n1-c1ccc([N+](=O)[O-])cc1	12%	-5.3	10	11	40	19	3	14	5.2	0.1
COc1ccc(CN=Cc2c(C(=O)O)[nH]c3ccccc23)cc1	?	0.5	-12	-1.3	-1	13	12	3	-6.1	0.8
COc1ccc(C(=O)NC(C)c2ccncc2)cc1S(=O)(=O)N(C)Cc1ccccc1 (stereo not given)	nt	1.5	nt	5.0	3	nt	-5	-3	3.1	nt
COc1ccc2nc(C)cc(Nc3ccc(C)cc3)c2c1	nt	-1.4	29	1.3	nt	1	10	-1	-0.1	2.4
CCOc1ccc(S(=O)(=O)NCCC(=O)N2CC(C)OC(C)C2)cc1 (stereo not given)	-1%	-0.2	-8	-0.9	-6	nt	8	6	-2.3	-3.1
CCC1CCCCN1CCCNC(=O)c1ccc2nc(N3CCCCC3)sc2c1 (stereo not given)	nt	-1.0	16	1.6	-2	-13	13	3	3.1	6.2
Cn1c(SCc2nnc(-c3ccccc3Br)o2)nc2sc3c(c2c1=O)CCC3	19%&0%	0.1	5	nt	3	-33	nt	nt	nt	4.4
CCOC(=O)C1CCN(C(=O)COc2ccc3c(c2)OCO3)CC1	nt	-0.2	-21	-4.4	-4	-2	4	-5	-2.0	-5.1
CCN1CCN(Cc2ccc(NC(=O)c3cc(NC(=O)c4cc5cccc(OC)c5o4)cc(OC)c3)cc2C(F)(F)F)CC1	-1%	0.1	31	5.7&7.7	6	46	-27&-2	-33&-11	14&8.0	5.1
COc1ccc(NC(=O)CCCNC(=O)Cn2cnc3sc4c(c3c2=O)CCCC4)cc1OC	nt	-0.4	-7	-1.7	-3	3	3	1	3.1	-4.5
Cc1cc(C)cc(NS(=O)(=O)Cc2ccccc2)c1	nt	0.3	4	3.0	nt	-124	-4	-5	-4.8	-0.3
Cc1cccc(C(=O)NNC(=O)c2cccc(C)c2)c1	16%	-1.0	-1	-3.6	-4	31	2	-4	-3.6	3.4
COc1ccc(Cl)cc1NC(=O)CCN1CCN(C)CC1	12%	-0.5	-2	nt	-8	1	nt	nt	nt	3.4
Nc1nc(-c2ccccc2)nn1C(=O)c1ccco1	-4%	0.2	5	-0.3	-3	-2	5	11	-0.4	-0.5
FC(F)(F)c1cccc(-c2ccc(/C=N/Nc3nncc(-c4ccccc4)n3)o2)c1	5%	0.3	20	-0.2	1	-4	nt	nt	nt	0.1
Cc1ccc(N(CC(=O)NC2CCCC2)C(=O)CNC(=O)c2cccs2)cc1F	nt	-0.3	24	1.5	2	5	-2	-4	3.4	-0.3
CCC(=O)N1CC23C=CC(CC2CC12CCCCC2)O3 (stereo not given)	9%	0.5	-4	nt	nt	4	nt	nt	nt	-3.5
O=C(CN(c1ccccc1)S(=O)(=O)c1ccccc1)NCCSc1ccccn1	nt	0.4	2	1.1	2	-11	6	13	-2.8	2.8
CCC(=O)N1N=C(c2ccc(NS(=O)(=O)CC)cc2)CC1c1ccc(C)cc1 (stereo not given)	nt	1.2	9	6.9	-7	-10	7	-1	-0.7	-0.2
CCOC(=O)c1cnc2ccc(C)cc2c1NCCO	24%	0.2	1	nt	7	-1	nt	nt	nt	-1.7
CCC(C)(C)NC(=O)c1ccc(S(=O)(=O)N(C)c2ccccc2OC)cc1	-1%	0.5	4	nt	-5	-16	nt	nt	nt	-3.4
Nc1c(C(=O)NCCN2CCOCC2)c2nc3ccccc3nc2n1CCc1ccccc1	8%	0.3	10	nt	12	-9	nt	nt	nt	85*
CC(C)c1nc2oc3c(=O)[nH]cnc3c2c2c1CCC2	2%	-0.1	-3	nt	7	58	nt	nt	nt	0.5
